Screening data deposited in PubChem BioAssay by ICCB-Longwood Screening Facility, Harvard Medical School.
HCMV UL50-53 inh: cytomegalovirus nuclear egress complex inhibition; inhibition, % (no concentration beside the values); AID 1918969; HTRF UL50-UL53 interaction, normalized percent inhibition; 190,000 compounds, 0.15% hits;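 active = both replicates at 50% or more, plus weaker picks with an unusually low signal ratio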;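 note: stock transfer was 100 nL into about 20 µL; 0% = negative control wells and 100% = wells with untagged competitor protein; inactives centre near -12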
Sa growth inh: inhibitors of Staphylococcus aureus growth at 42 °C. S. aureus RN4220 growth, OD600, 20 h; active compounds read low. relative growth, % (concentration not given with the values). 170,000 compounds, 0.53% hits. AID 720641;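 active = growth at 42 °C up to 50% and 20 or more points under that at 30 °C, or under 10% at both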;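 note: 300 nL library stock went into each well; scaled to the means of positive and negative controls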
GIV-Gai inh: GIV-Galpha-i interaction inhibition | 210,000 compounds, 0.42% hits | P08753 | AID 1224905 | Galpha-i3/FITC-GIV peptide fluorescence polarization, 90 min; active compounds read low; scaled: aluminum fluoride 0%, vehicle 100% | percent of control (FP), % (test concentration not listed);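 active = replicate mean at 85% of control or lower, very high polarization wells dropped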;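 note: lower values mean more displacement of the GIV peptide from Galpha-i3; wells of about 15 µL received 100 nL stock; the first replicate is given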
Target sequence (P08753 whole entry, looked up): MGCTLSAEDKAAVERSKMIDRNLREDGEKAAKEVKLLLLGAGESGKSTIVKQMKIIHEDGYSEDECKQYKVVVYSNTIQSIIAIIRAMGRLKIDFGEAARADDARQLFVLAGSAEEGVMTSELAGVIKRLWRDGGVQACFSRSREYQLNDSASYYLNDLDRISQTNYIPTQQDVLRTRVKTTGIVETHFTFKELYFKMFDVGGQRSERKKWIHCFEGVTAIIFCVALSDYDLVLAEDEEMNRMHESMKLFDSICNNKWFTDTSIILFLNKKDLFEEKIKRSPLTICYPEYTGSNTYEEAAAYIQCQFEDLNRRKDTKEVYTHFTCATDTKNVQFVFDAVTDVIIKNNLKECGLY
Sa growth inh second temp: second read-out of Sa growth inh, no call of its own (marks repeat the call); relative growth, %; measured here: growth at 30 °C;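 optical density after 20 h as mean of two plates; 100% = untreated growth and lower means inhibition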
The depositor's hits bear a star; / = no result given; & = joins results of further samples.

A first look, two compounds:
SMILES	HCMV UL50-53 inh	Sa growth inh	Sa growth inh second temp	GIV-Gai inh
Cc1nnc(Sc2cc(C(=O)NCCN3CCOCC3)c3ccccc3n2)s1	-46	104	87	104
O=C1CCN(C(=O)c2ccc(Cl)cc2)c2ccccc21	-6	97	88	108

All compounds of this part, from the first entry:
SMILES	HCMV UL50-53 inh	Sa growth inh	Sa growth inh second temp	GIV-Gai inh
Cc1nnc(Sc2cc(C(=O)NCCN3CCOCC3)c3ccccc3n2)s1	-46	104	87	104
O=C1CCN(C(=O)c2ccc(Cl)cc2)c2ccccc21	-6	97	88	108
Cc1ccc(S(=O)(=O)N(C)C(=O)NC(=O)Nc2ccc(S(=O)(=O)Nc3nc(C)cc(C)n3)cc2)cc1	-12	/	/	103
COc1ccc(C2=NOC(C(=O)NCc3ccco3)C2)cc1 (stereo unspecified)	-13	107	90	99
CCN(CC)c1ccc(NC(=O)c2ccc(Cl)cc2)c(N(CC)CC)n1	-52	106	92	104
Cc1ccc(OCc2nc3ccccc3n2CCOc2ccc(Cl)cc2)cc1	-7	104	83	96
COc1ccc(N2CCN(c3ncnc4sc(C(=O)O)c(C)c34)CC2)cc1	-17	/	/	110
CCN(CCO)C(=O)CC(c1ccccc1)c1cc(Br)ccc1O (stereo unspecified)	-2	99	97	103
NC(=O)c1ccccc1NC(=O)CC12CC3CC(CC(Br)(C3)C1)C2	-24	113	89	/
CCOC(=O)c1c(NC(=O)CCN2C(=O)/C(=C/c3ccc(F)cc3)SC2=S)sc2c1CCCC2	-18	/	/	104
O=C(Nc1ccc(F)cc1F)c1noc2c1CCc1ccccc1-2	-2	111	99	100
CCN(CC)C(=O)c1cnn(-c2ccccc2)c1-n1cccc1	-2	110	105	112
Cc1noc(-c2ccccc2NC(=O)C2CC(=O)N(c3ccccc3)C2)n1 (stereo unspecified)	-35	/	/	109
CCOC(=O)c1cc2occc2n1CC	-6	99	82	110
N/C(=N\OC(=O)c1cnc2n(c1=O)CCS2)c1ccc(C(F)(F)F)cc1	5	103	99	105
CCOC(=O)/C(C#N)=C/c1cn(CCC#N)nc1C	-77	95	93	/
O=C(O)C(C(=O)/C=C/c1ccc2c(c1)OCO2)=C1SCCS1	-10	105	72	/
COc1ccc(S(=O)(=O)N2CCN(c3ccc(F)cc3)CC2)cc1C(=O)N1CCOCC1	-2	97	86	101
Cc1ccc2c(c1)c1c(c(=O)n(-c3ccccc3C)c(=O)n1CC(=O)N1CCCC1)n2C	/	98	93	104
CC1=C(C(=O)Nc2ccccc2Cl)C(c2cccc(O)c2)n2ncnc2N1 (stereo unspecified)	/	118	103	111
O=C(CNc1ccc(Cl)cc1F)N1CCc2ccccc21	-25	77	96	/
O=C(O)c1c(-n2cccc2)sc2c1CCC2	12	113	65	99
COC(Cn1c(-c2ccc(C)cc2)n[nH]c1=S)OC	-8	97	92	100
CCOc1cc(Cl)c(S(=O)(=O)n2ccnc2)cc1Cl	-28	85	77	110
CC(O)CNc1nc2ccccc2n1-c1ncnc2sc3c(c12)CCC3 (stereo unspecified)	15	43	0	/

Further compounds:
SMILES	HCMV UL50-53 inh	Sa growth inh	Sa growth inh second temp	GIV-Gai inh
CCCOc1ccccc1C1Nc2ccccc2-c2nnc(SC)nc2O1 (stereo unspecified)	-29	/	/	100
O=C(NCc1ccc(F)cc1F)C1CCN(c2nccn3nc(-c4ccc(F)cc4)cc23)CC1	-18	/	/	119
O=S(=O)(NCc1cccn1Cc1ccccc1)c1ccc(F)cc1	-26	/	/	106
Cc1cc2c(cc3n2CC(C)(C(=O)NC2CCCCC2)N(CCN2CCN(C)CC2)C3=O)o1 (stereo unspecified)	-28	/	/	100
CCOC(=O)N1CCc2c(sc(NCc3ccc(N(CC)CC)cc3)c2C(=O)Nc2cc(OC)ccc2OC)C1	/	99	80	120
Cc1ccc(C2Nc3ccccc3NC3=C2C(=O)CC(C)(C)C3)o1 (stereo unspecified)	-7	96	94	99
COc1ccc(CCNC(=O)c2ccc3c(c2)sc2nc(-c4ccccc4)cn23)cc1OC	/	128	95	108
CN(C(=O)c1ccc2c(=O)n3c(nc2c1)CCCCC3)c1cccc(Cl)c1	-18	104	82	100
CCOc1ccc(-n2c(/C=C/c3cccc(F)c3)nc3cc(OC)c(OC)cc3c2=O)cc1	/	125	94	108
CCCn1nnc2cc(S(=O)(=O)N3CCCCC3C(=O)N3CCC(C(N)=O)CC3)ccc21 (stereo unspecified)	-17	/	/	104
O=C(CSc1n[nH]c(=O)n1C1CC1)c1ccc(N2CCOCC2)cc1	-26	111	91	96
Cn1c(=O)c2c(ncn2Cc2ccccc2)n(C)c1=O	-12	81	86	/
CC(=O)Nc1ccc(S(=O)(=O)NN2C(=O)/C(=C/c3ccco3)N=C2c2ccccc2)cc1C(=O)O	-22	95	81	/
O=C(Nc1ccc2oc(-c3ccc4ccccc4c3)nc2c1)c1ccc(Cl)c(Cl)c1	-32	100	93	103
C[C@@H](C(=O)NC1=NCCS1)N1C(=O)C2CC=CCC2C1=O (stereo partly specified)	2	97	91	/
Cc1ccc(C)c2[nH]c(=O)c(CCNC(=O)c3ccc(S(=O)(=O)N(C)C)cc3)cc12	-36	87	81	106
O=C(CSc1nc2ccccc2c(=O)n1CCCN1CCCCC1)c1ccccc1	4	94	84	99
CCc1ccc(-c2ccc(C(=O)Oc3ccc(Br)cc3)cc2)nc1	-23	102	90	106
Cn1cc(CC(=O)NCCCN2CCCC2)c2ccccc21	1	102	87	103
O=C(NCC1CCCO1)c1ccc(Br)cc1 (stereo unspecified)	-6	96	73	101
CC(=O)N1c2ccc(S(=O)(=O)N3CCCC3C(=O)N3CCn4c3nc3ccccc34)cc2CC1C (stereo unspecified)	-35	82	91	99
O=C1C(c2ccccc2)c2ccccc2N1Cc1ccccc1 (stereo unspecified)	-7	119	80	103
CCn1c2ccccc2c2cc(CN3CCN(c4ccccn4)CC3)ccc21	3	118	101	102
CCN(CC)CCN1C(=O)C(=O)/C(=C(/O)c2ccc3c(c2)CC(C)O3)C1c1ccc(F)cc1 (stereo unspecified)	-16	110	94	103
CC1(C)Cc2nc3c(cc2CO1)c(=O)n(Cc1ccccc1)c(=O)n3CC(=O)N1CCOCC1	6	/	/	101

A draw from above in order of molar mass, high to low:
SMILES	HCMV UL50-53 inh	Sa growth inh	Sa growth inh second temp	GIV-Gai inh
CCCn1nnc2cc(S(=O)(=O)N3CCCCC3C(=O)N3CCC(C(N)=O)CC3)ccc21 (stereo unspecified)	-17	/	/	104
Cc1cc2c(cc3n2CC(C)(C(=O)NC2CCCCC2)N(CCN2CCN(C)CC2)C3=O)o1 (stereo unspecified)	-28	/	/	100
CCn1c2ccccc2c2cc(CN3CCN(c4ccccn4)CC3)ccc21	3	118	101	102
C[C@@H](C(=O)NC1=NCCS1)N1C(=O)C2CC=CCC2C1=O (stereo partly specified)	2	97	91	/

Single entries from the entries so far.
Cc1ccc(C2Nc3ccccc3NC3=C2C(=O)CC(C)(C)C3)o1 (stereo unspecified) in HCMV UL50-53 inh: -7
O=C(Nc1ccc2oc(-c3ccc4ccccc4c3)nc2c1)c1ccc(Cl)c(Cl)c1 in GIV-Gai inh: 103
Cn1c(=O)c2c(ncn2Cc2ccccc2)n(C)c1=O in HCMV UL50-53 inh: -12
CCOc1ccc(-n2c(/C=C/c3cccc(F)c3)nc3cc(OC)c(OC)cc3c2=O)cc1 in GIV-Gai inh: 108
COc1ccc(S(=O)(=O)N2CCN(c3ccc(F)cc3)CC2)cc1C(=O)N1CCOCC1 in GIV-Gai inh: 101

New compounds follow.
SMILES	HCMV UL50-53 inh	Sa growth inh	Sa growth inh second temp	GIV-Gai inh
Cc1ccc2[nH]c(C)c(CCC(=O)O)c(=O)c2c1	7	70	91	106
CCOc1ccc(N(C(C)C(=O)N2CCN(c3ccccc3OC)CC2)S(C)(=O)=O)cc1 (stereo unspecified)	-8	/	/	101
COCCN1C(=O)c2[nH]nc(-c3ccccc3O)c2C1c1ccc(Cl)c(Cl)c1 (stereo unspecified)	10	28	22	108
O=C(O)CCC(=O)N1CCN(c2ccc(Nc3ccccc3)nn2)CC1	-43	99	97	103
O=C(Cc1n[nH]c(=O)c2ccccc12)N1CCCSc2ccccc21	-8	99	91	/
CC(C)N(C(=O)COc1ccc2ccccc2c1)C(C)C	-9	107	119	101
COc1ccc(-c2noc(-c3cc4ccccc4o/c3=N\NS(=O)(=O)c3ccc(C)cc3)n2)cc1	-10	94	87	105
CCN1C(=O)c2ccccc2Sc2ccc(NC(=O)Nc3cccc([N+](=O)[O-])c3C)cc21	/	130	104	108
OC1CCCN(CC(O)COc2c(Cl)cccc2Cl)C1 (stereo unspecified)	-16	109	89	/
CC(=O)OCC(CCn1cnc2cnc(N)nc21)COC(C)=O	-16&-44&12&-41&-18	84&89&88	85&90&88	106&103
CC(=O)Nc1ccc2[nH]c(C)cc(=O)c2c1	-21	104	81	106
COc1ccc(C(=O)N2CCN(c3nc4c(OC)cccc4s3)CC2)cc1OC	/	104	96	100
CC1=C(C)CC(C(=O)N2CCN(Cc3c(F)cccc3Cl)CC2)C(C(=O)O)C1 (stereo unspecified)	-14	90	89	100
O=C(Nc1nc(-c2cccs2)cs1)c1cc(Cl)sc1Cl	-10	96	64	109
CCCn1c(O)c(N=NC(=S)Nc2cccc(OC)c2)c2ccccc21	-34	76	64	102
CC(C)(CO)NC(=O)c1ccc2c(c1)C(=O)c1ccccc1-2	-138	99	69	101
CN1CCN(CCCNC(=O)c2cc(-c3ccccn3)nc3ccccc23)CC1	-20	/	/	114
Cc1ccc2oc(=O)c(-c3nc4ccccc4s3)cc2c1	/	98	91	107
Cc1ccc(NC(=O)C(Cc2c[nH]c3ccccc23)NC(=O)OC(C)(C)C)c(C)c1 (stereo unspecified)	7	114	94	104
COc1ccc(CC(=O)N2N=C(C(F)(F)F)CC2(O)C(C)(C)C)cc1 (stereo unspecified)	/	99	82	104
Cc1nc2ccccc2n1CCc1nc2c3ccccc3nc(SCC(=O)Nc3ccc(Br)cc3F)n2n1	/	91	87	108
C=CCSc1nnnn1-c1ccc(OC)cc1	-27	89	91	101
CC(C)CCNc1cc(C(C)C)c(C#N)c2nc3ccccc3n12	/	84	28	113
COC(=O)c1ccccc1NC(=O)Cc1noc2ccc(C)cc12	-9	100	87	100
COC(=O)c1ccc(NC(=O)CSc2nc3cc4ccccc4cc3[nH]2)cc1	-22	103	94	107
CN1CCN(S(=O)(=O)c2ccc(C(=O)Nc3cnc4ccccc4c3)cc2)CC1	-7	/	/	111
COc1ccc(CCN2C(=O)CC(C(=O)Nc3ccc(C(C)=O)cc3)SC2=Nc2ccc(F)cc2)cc1 (stereo unspecified)	-26	/	/	106
O=C(Nc1ccc2c(c1)OCO2)c1cc(-c2ccc(Cl)cc2)on1	-9	91	95	105
COCCc1nnc(CCOC)n1N	15	75	102	/
CC(C)(C)OC(=O)N1CCC(c2c(C(=O)NCc3ccco3)cnn2-c2ccc(F)cc2)CC1	/	82	97	110

Sorted by the number under GIV-Gai inh (rising): three of the compounds above.
SMILES	Sa growth inh	Sa growth inh second temp	GIV-Gai inh
C=CCSc1nnnn1-c1ccc(OC)cc1	89	91	101
Cc1nnc(Sc2cc(C(=O)NCCN3CCOCC3)c3ccccc3n2)s1	104	87	104
COc1ccc(CCNC(=O)c2ccc3c(c2)sc2nc(-c4ccccc4)cn23)cc1OC	128	95	108
